Screening results deposited in PubChem BioAssay by National Center for Advancing Translational Sciences (NCATS).
RE007 growth inh – less growth of the S. pombe RE007 Vpr strain. 360,000 compounds, 0.21% hits. Potency, µM (top dose mostly 92.2 µM), inactives show at the highest dose activity change, negative = less growth. AID 651644. S. pombe RE007 Vpr strain, BacTiter-Glo ATP luminescence, 24 h; control for the full effect not named in the record; active = well fitted falling curve with a large enough effect; inconclusive = small, poorly fitted or top-dose-only effect; inactive = no such curve, though single readings can be large or run the other way;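 note: % is set by controls: 0 for no effect and ±100 for the full control effect; nearly all actives have a fitted effect of over 50% in size; the assay follows cell death caused by Vpr and the record does not say whether a fall means rescue or toxicity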
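Fission yeast RE007 carrying one integrated HIV-1 vpr copy, seeded at OD 0.01 in PMG+AL medium with 23 nL pinned compound. Grown 24 h at 30 degrees; viability read by BacTiter-Glo luminescence after 5 min.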
2A StopGo – FMDV 2A StopGo reporter, luciferase signal | human cells with a luciferase reporter of 2A StopGo recoding; control for the full effect not named in the record | Potency, µM (top dose mostly 57.9 µM), inactives show top-dose signal change, negative = less light | 410,000 compounds, 1.2% hits | AID 1159524; active = well fitted falling curve with a large enough effect; inconclusive = small, poorly fitted or top-dose-only effect; inactive = no such curve, though single readings can be large or run the other way; tested in HEK293T cells; note: % is set by controls: 0 for no effect and ±100 for the full control effect; nearly all actives have a fitted effect of over 45% in size; luciferase light after 4 h
Lassa entry inh – blocks Lassa virus binding to or entry into cells; Lassa virus pseudotype entry inhibition, cell reporter; control for the full effect not named in the record; 300,000 compounds, 1.2% hits; AID 540256; Potency, µM (titrated, usually from 37.9 µM), inactives show top-dose activity change, negative = inhibition, hits mostly inhibitors; active means well fitted inhibition curve with a large enough effect; inconclusive means small, poorly fitted or top-dose-only effect, or effect the other way; inactive means flat fitted curve, though single readings scatter; tested in HEK293 cells; note: % is set by controls: 0 for no effect and ±100 for the full control effect; nearly all actives have a fitted effect of over 50% in size; luciferase read-out
NS1 function inh – inhibitors of influenza NS1 protein function; S. cerevisiae slowed by influenza A NS1, growth recovery by OD600; Potency, µM (titrated, usually from 46.1 µM), inactives show at the highest dose activity, positive = more growth; 270,000 compounds, 0.4% hits; active means well fitted rising curve with a large enough effect; inconclusive means small, poorly fitted or top-dose-only effect; inactive means no such curve, though single readings can be large or run the other way; note: nearly all actives have a fitted effect of over 50% in size
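A cell-based growth assay was used: compounds that relieve NS1-induced slow growth of budding yeast raise OD600. Assay medium was yeast nitrogen base with ammonium sulphate and -URA supplement, pH 6.0, with 2% galactose.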
SARS PLpro yeast – SARS-CoV PLP inhibition in yeast; S. cerevisiae expressing SARS-CoV PLpro, growth rescue; control for the full effect not named in the record; 330,000 compounds, 0.19% hits; Potency, µM (top dose mostly 32.9 µM), without a hit: top-dose activity, positive = growth rescue; active means well fitted rising curve with a large enough effect; inconclusive means small, poorly fitted or top-dose-only effect; inactive means no such curve, though single readings can be large or run the other way; note: 0% is about no effect; nearly all actives have a fitted effect of over 55% in size; growth read by luminescence after 48 h
Cruzain inh noDet – blocks cruzain activity in detergent-free assay | purified cruzain, Z-FR-AMC fluorescence, no detergent | Potency, µM, for inactives: max response, negative = inhibition, usual class: inhibitors | P25779 | 200,000 compounds, 2.3% hits;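 note: plate controls were enzyme without inhibitor for no effect and buffer without enzyme for full effect; nearly all actives have a fitted effect of over 40% in size; top concentration of the series not given in the record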
Target sequence (P25779 123-467 limits assumed): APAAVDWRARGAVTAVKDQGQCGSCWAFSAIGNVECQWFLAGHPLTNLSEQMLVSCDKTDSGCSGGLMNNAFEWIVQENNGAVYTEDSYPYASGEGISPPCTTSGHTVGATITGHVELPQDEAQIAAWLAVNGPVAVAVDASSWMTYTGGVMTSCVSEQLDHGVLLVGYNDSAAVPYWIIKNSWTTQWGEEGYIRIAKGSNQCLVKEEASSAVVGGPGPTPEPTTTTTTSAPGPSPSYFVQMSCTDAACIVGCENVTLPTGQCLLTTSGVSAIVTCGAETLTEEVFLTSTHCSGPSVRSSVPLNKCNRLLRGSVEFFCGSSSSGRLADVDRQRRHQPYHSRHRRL
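Purified cruzain at 1.5 nM, pre-incubated 15 min with compound at room temperature in 100 mM sodium acetate pH 5.5, 5 mM DTT, 0.00005% Triton X-100. Reaction started with 2 uM Z-FR-AMC; AMC fluorescence increase over 60 s gives rate.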
MARV entry inh – blocks Marburg virus binding to or entry into cells; Potency, µM (doses to about 37.8 µM), inactives show at the highest dose activity change, negative = inhibition, actives largely listed as inhibitors; Marburg virus pseudotyped entry inhibition, cell reporter; control for the full effect not named in the record; about a third of the inactives were read at about 46 µM; 300,000 compounds, 1.8% hits; AID 540276; active = well fitted inhibition curve with a large enough effect; inconclusive = small, poorly fitted or top-dose-only effect, or effect the other way; inactive = flat fitted curve, though single readings scatter; tested in HEK293 cells; about a fifth of its hits are not listed in these tables; note: % is set by controls: 0 for no effect and ±100 for the full control effect; luciferase read-out
Cruzain inh Det – cruzain (T. cruzi) inhibition with detergent; P25779; purified cruzain, Z-FR-AMC fluorescence, 0.01% Triton; Potency, µM, inactives show max response, negative = inhibition, actives largely listed as inhibitors; 200,000 compounds, 0.43% hits; AID 1478;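 note: plate controls were neutral wells for no effect and buffer without enzyme for full effect; nearly all actives have a fitted effect of over 40% in size; top concentration of the series not given in the record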
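Steps: dispense cruzain (1.5 nM final) in acetate buffer pH 5.5 with DTT and 0.01% Triton X-100; pin-transfer compounds; incubate 15 min RT; add Z-FR-AMC (2 uM final); read fluorescence every 30 s, using the 60 s intensity change.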
* marks the source's active call; other numbers are inactive results; u = inconclusive; x = not tested or not shown; & = joins results of further samples; [ ] = remark or other dose. Unless noted, calls come from the whole dose curve; as a rule, active = well fitted curve in the direction sought with a large enough effect; inconclusive = small, poorly fitted or top-dose-only effect, or another doubt; inactive = no such curve, though single readings can be large; an effect the other way counts as inactive or inconclusive. Potency is the fitted concentration of half-maximal effect.

SMILES	RE007 growth inh	2A StopGo	Lassa entry inh	NS1 function inh	SARS PLpro yeast	Cruzain inh noDet	MARV entry inh	Cruzain inh Det
CCOC(=O)CSc1nc(C)cc(C)c1C#N	-1%	-3%	6%	-1%	6%	-2%	8%	5.3%
FCCCOc1ccc(-c2nccc(-c3ccc(Cl)cc3)n2)cc1	17%	-2%	-7%	-8%	3%	5%	1%	-4.1%
Cc1nc2sc(C(c3cccs3)N3CCN(c4cccc(Cl)c4)CC3)c(O)n2n1 (centres undefined)	-2%	0%	x	-86%	-2%	u	x	-12%
O=C(Nc1ccccc1O)c1ccc(Cl)cc1	u	24%	17%	-70%	-21%	7%	u	0.1%
CC1CCN(C(=O)CSc2nnc3ccc(-c4cccnc4)nn23)CC1	-3%	-23%	-18%	x	2%	x	25%	x
CCN(CC(=O)NC(C)C)C(=O)CCNC(=O)c1ccc(Cl)cc1	17%	13%	10%	3%	2%	-6%	15%	-2.1%
CCOC(=O)Cc1csc(N/C(=N/S(=O)(=O)c2ccc(F)cc2F)c2ccccc2)n1	-2%	0%	-3%	-2%	3%	12%	22%	-6.1%
CCn1c(SCCOc2ccccc2F)nc2ccccc21	x	-1%	6%[46.1 µM]	x	x	0%	x	-14%
Cc1nnc(NC(=O)C2CCCC2)s1	12%	-19%	x	6%	-3%	x	x	x
Cc1ccc(NC(=O)C(=O)NCCCN2CCOCC2)cc1C	x	-20%	u	x	x	3%	-1%[46.1 µM]	0.1%
Cc1nn(CC(=O)N2CCN(C34CC5CC(CC(C5)C3)C4)CC2)c(C)c1[N+](=O)[O-]	12%	1%	0%	12%	0%	x	7%[46.1 µM]	x
COc1ccc(S(=O)(=O)N(CCCN2CCCC2=O)Cc2cc3c(C)ccc(C)c3[nH]c2=O)cc1	20%	-26%	u	-14%	-1%	u	-6%&-6%&-6%	12%
CCOC(=O)Cc1csc(NC(=O)Nc2ccccc2)n1	4%	-1%	-27%	-9%	12%	-9%	-21%	-3.6%
Cc1ccc(-c2csc(N3CCN(c4cc5c(cc4Cl)nc(-c4ccncc4)n5CCOCCO)CC3)n2)cc1	-3%	-21%	x	15%	-14%	x	x	x
Cc1nn(CC(=O)NC2CCCCC2)c(=O)c2cccn12	-8%	10%	x	1%	2%	x	x	x
O=C(NNC(=O)C1CC1)c1cc(Cl)nc2ccccc12	-9%	7%	-5%[46.1 µM]	-1%	3%	x	4%[46.1 µM]	x
NS(=O)(=O)c1ccc(CCNC(=O)NC2(C(F)(F)F)Oc3ccccc3O2)cc1	17%	-22%	-2%	-7%	6%	23%	-28%&-28%	-0.8%
S=C(Nc1ccccc1Oc1ccccc1)Nc1cccc(Cl)c1Cl	x	0%	-1%	21%	-2%	-3%	-5%	-4.4%
CC(=O)Oc1cc2c(c3ccccc13)CCC2=O	5%	-5%	11%	x	x	x	18%	x
Cc1ccc(CN2CCNC(=O)C2CC(=O)NC2CCCCCC2)cc1 (centres undefined)	-16%	-5%	3%[46.1 µM]	12%	-10%	x	u	x
COc1ccc(N(C(=O)c2snc(C(N)=O)c2N)C(C(=O)NC2CCCC2)c2ccc(C)o2)c(OC)c1 (centres undefined)	-22%	5%	u	10%	1%	x	u	x
CCc1ccc(S(=O)(=O)NCc2nc3cccnc3n2Cc2cccc(OC)c2)cc1	x	53%[activator]	2%[46.1 µM]	x	x	-4%	x	-5.2%
Cc1ccc(S(=O)(=O)N(CC(=O)NCc2ccco2)Cc2ccccc2F)cc1	19%	-4%	-22%	-22%	-6%	14%	-8%	-2.5%
Cc1ccc(NC(=O)Nc2ccc3c(c2)nc(C)n3C)cc1	-25%	6%	u	6%	0%	x	11µM*	x
O=C(c1ccc(Cl)cc1Cl)N1CCC(C(=O)N2CCOCC2)CC1	6%	-4%	0%[46.1 µM]	13%	1%	x	-4%[46.1 µM]	x
O=[N+]([O-])c1ccc(Cc2ccncc2)cc1	17%	u	25%	5%	0%	x	u	x
Clc1ccccc1Cn1c(-c2cccs2)nc2ccccc21	x	-14%	-4%[46.1 µM]	x	x	7%	-4%[46.1 µM]	-7.1%
Cc1nc(C(=O)O)nn1-c1cc(Cl)ccc1Cl	-11%	1%	-15%[46.1 µM]	-4%	0%	x	9%[46.1 µM]	x
O=C(/C=C/c1ccccc1)NC(=S)Nc1ccc(N2CCOCC2)cc1	-4%	x	-25%	9%	13%	-6%	1%	-4.0%
CCC(=O)N1CCCC(C(=O)c2ccc(-c3ccccc3)cc2)C1 (centres undefined)	12%	-12%	0%	-27%	-3%	x	-4%	x
O=C(NCc1cccnc1)c1cc(-c2ccc(Cl)cc2)oc1C(F)(F)F	-2%	-11%	x	-9%	-9%	x	x	x
CCN1C(=O)/C(=C2/SC(C)=C(C)N2CC)SC1=S	-3%	6%	27%	-54%	1%	-10%	17%	-13%
Cc1cc(=O)c(C(=O)O)nn1-c1ccccc1F	1%	9%	-14%	4%	-1%	x	7%[46.1 µM]	x
O=C(CCNC(=O)c1ccccc1Cl)Nc1ccc(S(=O)(=O)Nc2ncccn2)cc1	-14%	-9%	-1%	x	0%	x	-2%	x
O=C(NCC1CCN(Cc2cccc(F)c2)CC1)c1cc2ccc3cccnc3c2[nH]1	x	-25%	-21%[46.1 µM]	x	x	-9%	x	-5.1%
Cc1ccc(C(=O)OCC(=O)NCc2ccco2)cc1S(=O)(=O)N1CCOCC1	8%	-14%	2%	x	0%	x	3%[46.1 µM]	x
CN(C(=O)CSc1nc2ccc(NC(=O)COc3ccccc3)cc2s1)c1ccccc1	x	u	0%[46.1 µM]	x	x	-9%	-7%[46.1 µM]	-3.1%
Cc1nc(-c2coc3cc(C)c(N=O)c(O)c3/c2=N\N)cs1	2%	4%	u	x	-3%	x	16%	x
CCc1nnc(NC(=O)CSc2nnc(-c3c[nH]c4ccccc34)n2CC)s1	3%	-3%	-15%	-16%	2%	-1%	16%	-0.9%
CCN(CC)S(=O)(=O)c1ccc(S(=O)(=O)N2CCCC(C(=O)NC3CC3)C2)cc1 (centres undefined)	-5%	u	-19%	6%	1%	x	u	x
O=C(NC1CC(=O)N(c2ccc(Cl)cc2)C1)C(=O)c1c[nH]c2ccccc12 (centres undefined)	x	-17%	-12%[46.1 µM]	x	x	u	x	-4.7%
O=c1c(C=NCc2cccs2)c(O)n(C2CCCCC2)c(=O)n1C1CCCCC1	22%	-11%	-12%	1%	5%	u	u	0.3%
O=C(CSc1cccc2cccnc12)Nc1ccc(S(=O)(=O)N2CCOCC2)cc1	-24%	u	-24%	u	-1%	x	u	x
O=C(COC(=O)C1CCCN1C(=O)c1cccs1)c1ccccc1 (centres undefined)	26%	-11%	2%	-4%	1%	-8%	5%	0.9%
CSc1ccccc1NC(=O)CN1c2ccccc2CC1C (centres undefined)	12%	-16%	x	-60%	-1%	x	x	x
CCN1CCN(c2ncnc3ccc(Br)cc23)CC1	-27%	-29%	-2%	1%	6%	-6%	-21%	-0.3%
COc1ccc(-c2cc3ccccc3s2)cc1[C@H]1[C@H]2C=CC[C@@H](C)[C@@H]2C(=O)N1Cc1ccccc1	-7%	35%[activator]	x	4%	2%	x	x	x
Cn1nc(C(F)(F)F)c(C#N)c1N1CCN(c2ccccc2)CC1	u	-18%	-6%	-53%	-36%	1%	-25%	-0.6%
COc1cccc(C(=O)COC(=O)c2cc(-c3cccs3)nc3ccccc23)c1	x	6%	5%[46.1 µM]	x	x	u	-1%[46.1 µM]	-8.0%
COc1cc(C(=S)N2CCC(C(N)=O)CC2)ccc1O	14%	8%	9%	-3%	3%	-2%	15%	3.7%
CC(C)[C@H](NC(=O)N1c2ccccc2NC(=O)[C@@H]1C(C)C)C(=O)N[C@@H](Cc1c[nH]c2ccccc12)C(=O)O	2%	-7%	x	15%	1%	x	x	x
O=C(NCCN1CCOCC1)c1cc(Cl)ccc1[N+](=O)[O-]	x	x	x	6%	7%	0%	x	0.7%
COc1ccc(C(=O)CSc2n[nH]c(C)n2)cc1[N+](=O)[O-]	-12%	1%	-10%[46.1 µM]	x	0%	x	18%[46.1 µM]	x
C/C(=N\NC(=O)CSc1nc(C)cc(C)n1)c1ccc2c(c1)OCCO2	27%	11%	12%	x	-1%	x	1%[46.1 µM]	x
C=CP(=O)(O)c1ccccc1	18%	-24%	0%	8%	10%	2%	7%	-1.0%
COc1ccc(N(CC(=O)Nc2ccc(C(C)C)cc2)S(=O)(=O)c2c(C)noc2C)cc1	6%	-24%	x	3%	-1%	x	x	x
O=C(Nc1c2c(nn1-c1ccccc1)CS(=O)(=O)C2)c1ccccc1Br	4%	-7%	-3%	6%	2%	x	13%	x
O=C(CSc1nc2ccccc2c2nc(-c3ccccc3)nn12)Nc1ccc(F)cc1	x	14%	12%[46.1 µM]	x	x	9%	x	2.3%
CCOC(=O)C1=C(C)NC(C)=C(C(=O)OCC)C1c1ccc(O)cc1	8%	-21%	u	-6%	-2%	-3%	u	-2.0%
COc1ccc(Nc2ncc(C(=O)N3CCN(c4ccc(OC)cc4)CC3)c3ccccc23)cc1	x	-15%	u	x	x	8%	u	-14%
C/C(=N\NC(=O)c1cccs1)c1ccc2c(c1)OCO2	2%	45%[activator]	11%[46.1 µM]	-10%	0%	x	u	x
CCCS(=O)(=O)N1CCC(C(=O)NCCCOCC)CC1	2%	8%	14%	-2%	3%	-8%	8%	-6.4%
Cc1ccc2nc(C3CCN(CC(=O)Nc4ccc5c(c4)OCCO5)CC3)[nH]c2c1	-6%	11%	-23%[14.3 µM]	2%	1%	2%	-26%	-1.6%

Compounds were not picked by outcome; overall some 4.7% were active at least once.
